Vaccinia mCherry: vaccinia inhibition (mCherry reporter). Vaccinia virus mCherry reporter infection, fluorescence; about a quarter of the inactives have no number. Potency, µM (series often up to 36.5 µM), for inactives: at the highest dose activity change, negative = inhibition, actives largely listed as inhibitors. hit rate 0.63% among 310,000; active = well fitted inhibition curve with a large enough effect; inconclusive = small, poorly fitted or top-dose-only effect; inactive = no such curve, though single readings can be large or run the other way; tested in A549 cells; also: nearly all actives have a fitted effect of over 35% in size; inactives centre near -10
Vaccinia Venus: vaccinia inhibition (Venus reporter); Potency, µM (series often up to 36.5 µM), without a hit: top-dose activity change, negative = inhibition, usual class: inhibitors; Vaccinia virus Venus reporter expression, fluorescence; AID 720580; hit rate 0.46% among 330,000; active means well fitted inhibition curve with a large enough effect; inconclusive means small, poorly fitted or top-dose-only effect; inactive means no such curve, though single readings can be large or run the other way; tested in A549 cells; also: nearly all actives have a fitted effect of over 30% in size; inactives centre near -10
Numbers without * were called inactive; i = inactive; ? = inconclusive; · = not tested or not shown; & = joins results of further samples; [ ] = remark or other dose. % is scaled to controls: 0 for no effect and ±100 for the full control effect; potency is read from the fitted curve at half-maximal effect.

Values run as follows: Vaccinia mCherry	Vaccinia Venus
- CCOc1ccc(-n2nnnc2SCC(=O)c2ccccc2)cc1
  ·	-11%
- CC(=O)c1cc(C#N)c(NCc2ccccc2)nc1C
  3%	-24%
- COc1ccc(OCCCn2c(=O)oc3ccccc32)cc1
  8%	9%
- O=C(NNC(=S)NC1CC2CCC1C2)c1ccc(Cl)cc1 (centres undefined)
  ?	-7%
- Cc1cccc(-c2nnc(SCC(=O)NC3CC3)n2C)c1
  -12%	-2%
- Cc1ccc(NC(=O)CN2CCOCC2)cc1S(=O)(=O)N1CCCCC1
  -16%	-3%
- COc1ccc(-c2cc(O)cc(O)c2)cc1
  -26%	-16%
- CC1(C)SC(=S)N(Cc2ccc3c(c2)OCO3)C1N(O)C(=O)NC1CCCCC1 (centres undefined)
  ·	?
- Cc1ccc(CCN2CC(C(=O)NCc3ccco3)CC2=O)cc1 (centres undefined)
  ·	-4%
- C[C@H]1CN([C@@H](C)CO)S(=O)(=O)c2ccc(Br)cc2O[C@@H]1CN(C)C(=O)Nc1ccc2c(c1)OCO2
  -19%	-27%
- COc1ccc(S(=O)(=O)N(C)C[C@H]2Oc3ccc(NC(=O)Nc4ccc5c(c4)OCO5)cc3C(=O)N([C@H](C)CO)C[C@@H]2C)cc1
  i	-27%
- CSc1ncnc2ncn(C)c12
  i	-9%
- Cc1ccc(OCCn2c(COc3ccc(Cl)cc3)nc3ccccc32)cc1
  -16%	-22%
- CCC(C(=O)Nc1ncn[nH]1)(C(F)(F)F)C(F)(F)F
  -9%	-13%
- CC1(C)COC(c2cc([N+](=O)[O-])ccc2Cl)=N1
  ·	-28%
- Cc1nc2ccc(S(=O)(=O)N(CC(=O)Nc3ccc(Cl)cc3)Cc3ccccc3)cc2s1
  -9%	-18%
- Cc1ccc(S(=O)(=O)c2nnn3c2nc(NCCc2ccccc2)c2sccc23)cc1
  ?	?
- Cc1cccc(NC2=CC(c3cccc(Br)c3)N(c3cccc(C)c3)C2=O)c1 (centres undefined)
  -12%	-3%
- CN(C)C(CN=C1NS(=O)(=O)c2ccccc21)c1ccco1 (centres undefined)
  i	2%
- CCCN1C2CCCC1CC(NC(=O)c1cccc(OC)c1)C2 (centres undefined)
  i	-13%

7 neighbouring records from above, quoted:
Values run as follows: Vaccinia mCherry	Vaccinia Venus
- COc1ccc(S(=O)(=O)N(C)C[C@H]2Oc3ccc(NC(=O)Nc4ccc5c(c4)OCO5)cc3C(=O)N([C@H](C)CO)C[C@@H]2C)cc1
  i	-27%
- CSc1ncnc2ncn(C)c12
  i	-9%
- Cc1ccc(OCCn2c(COc3ccc(Cl)cc3)nc3ccccc32)cc1
  -16%	-22%
- CCC(C(=O)Nc1ncn[nH]1)(C(F)(F)F)C(F)(F)F
  -9%	-13%
- CC1(C)COC(c2cc([N+](=O)[O-])ccc2Cl)=N1
  ·	-28%
- Cc1nc2ccc(S(=O)(=O)N(CC(=O)Nc3ccc(Cl)cc3)Cc3ccccc3)cc2s1
  -9%	-18%
- Cc1ccc(S(=O)(=O)c2nnn3c2nc(NCCc2ccccc2)c2sccc23)cc1
  ?	?

Following part.
Values run as follows: Vaccinia mCherry	Vaccinia Venus
- CC(C)OC(=O)Nc1cccc(Cl)c1
  i	-13%
- Cc1cc(C)c(NC(=O)CS)c(Cl)c1
  -29%	-16%
- CC1CCCCC1NC(=O)CSc1nncn1N (centres undefined)
  5%	-4%
- COc1ccc(Cc2nnc(SCC(=O)NCC3CCCO3)o2)cc1 (centres undefined)
  -11%	-16%
- COc1ccccc1OCC(=O)Nc1cccc(C(=O)N2CCOCC2)c1
  i	-3%
- N#Cc1ccccc1NC(=O)COC(=O)c1cccs1
  i	-14%
- CC(C)CC1(C)NC(=O)N(CC(=O)Nc2cccc(S(=O)(=O)N(C)c3ccccc3)c2)C1=O (centres undefined)
  -17%	-17%
- O=C(NC1CC(=O)N(c2ccc(F)cc2)C1)c1ccc(S(=O)(=O)N2CCCC2)cc1 (centres undefined)
  -4%	-6%
- O=C(c1cn(CCOc2ccccc2F)c2ccccc12)C1CCCCC1
  -6%	-12%
- COc1ccc(C)cc1NC(=O)CSc1ccc(Cl)cc1
  -12%	-5%
- O=C1CN(C(=O)COc2ccc(Br)cc2Br)c2ccccc2N1
  0%	-8%
- Cc1ccccc1S(=O)(=O)N1C[C@H]2CON(C)[C@H]2C[C@H]1c1cccc(-c2ccc(C#N)cc2)c1
  i	-27%
- CCc1ccccc1NC(=O)CN(c1ccc(OC)cc1OC)S(=O)(=O)c1ccccc1[N+](=O)[O-]
  -8%	-14%
- CC(C)CNC(=O)c1ccc2c(c1)C(=O)N(C1CCCCC1)C2=O
  -12%	-34%
- Cc1ccc(OC(=O)CCS(=O)(=O)c2ccc(C)cc2)cc1
  -27%	-21%
- O=C(Cc1ccc(F)cc1)Nc1ccc(Cl)cn1
  i	-12%
- O=C1CCC(C(=O)N(c2ccccc2)C2(C(=O)NC3CCCCC3)CCCCC2)N1 (centres undefined)
  -21%	-6%
- COc1ccc(-c2[nH]ncc2CN(C)Cc2cnccn2)c(OC)c1
  i	-15%
- O=C(CCNC(=O)c1ccccc1)Nc1ccc(F)c(Cl)c1
  i	-6%
- Cc1ccccc1N=Cc1c(O)n(-c2nccs2)c(=O)c2ccccc12
  -30%	?
- CC(C)(O)CN(C(=O)C(c1ccccc1)c1ccccc1)C1CCCCC1
  -29%	-13%
- C=CCn1c(SCC(=O)N2CCCC2)nc2scc(-c3cccs3)c2c1=O
  -10%	-12%
- COc1ccc(S(=O)(=O)N(C)C[C@H]2Oc3ccc(NS(=O)(=O)c4c(C)noc4C)cc3C(=O)N([C@H](C)CO)C[C@@H]2C)cc1
  i	-8%
- COc1ccc(C(=O)NCCSCc2ccc(C)cc2)cc1
  i	-2%
- CCOC(=O)C(NC(C)=O)(Nc1ccc(S(=O)(=O)Nc2nccs2)cc1)C(F)(F)F (centres undefined)
  ?	-4%
- COc1cc2c(cc1OC)CN(Cc1cc(=O)n3c(-c4ccccc4)csc3n1)CC2
  ?	-13%
- CC(C)CC1NC(=O)N(CC(=O)N2CCN(S(=O)(=O)c3ccc4ccccc4c3)CC2)C1=O (centres undefined)
  ·	?
- CCN1CCN(c2ccc(S(=O)(=O)N(CC)CC)cc2[N+](=O)[O-])CC1
  i	-17%
- CCCc1cc(=O)[nH]c(SC/C=C/c2ccccc2)n1
  i	-6%
- C=CCNc1nc(Nc2ccc(OC)cc2OC)nc(OCC)n1
  -22%	-9%
- O=S(=O)(c1ccc2c(c1)OCCO2)N1CCN(c2nc(-c3cccs3)nc3ccccc23)CC1
  -1%&-2%	-10%&-21%
- Cc1nc(=O)c(-c2ccccc2)c(C)n1Cc1ccccc1
  -9%	-12%
- CC(=O)N1CCc2c(sc(NC(=O)CS(=O)(=O)c3ccc(F)cc3)c2C#N)C1
  -9%	-8%
- COc1ccc(Br)cc1/C=N/NC(=O)c1ccc(COc2ccc3c(c2)CCC3)o1
  -25%	-16%
- CCOC(=O)C1(C(=O)OCC)NC(=O)CC1CC(C)C (centres undefined)
  -14%	-7%
- O=S(=O)(/C=C/c1ccccc1)N1CCN(Cc2ccccc2)CC1
  3%	-4%
- O=C(NCc1cccs1)c1cc(S(=O)(=O)N2CCOCC2)ccc1N1CCCC1
  -20%	-8%
- CCn1cc(C(=O)NC(C)C2CC3CCC2C3)cn1 (centres undefined)
  -6%	-15%
- O=[N+]([O-])c1ccc(N2CCN(c3ccccc3)CC2)nc1
  ?	-13%
- Cn1c(N)c(C(=O)Nc2ccccc2)c(=O)[nH]c1=O
  i	-12%
- CCOC(=O)CN1C(=O)N[C@@H](c2cccc(F)c2)C(C(C)=O)=C1C
  i	-18%
- COc1ccc(Br)cc1CN1CCN(C(=O)c2ccc(F)cc2)CC1
  -6%	-1%
- Cc1cc2nc(C3CCCN(C(=S)Nc4ccccc4C)C3)[nH]c2cc1C (centres undefined)
  -7%	-26%
- Cc1ccsc1C1C(C#N)=C(N)Oc2n[nH]c(C)c21 (centres undefined)
  -1%	-12%
- Nc1nonc1C(=O)N/N=C/c1ccc(-c2ccc(Cl)c(C(=O)O)c2)o1
  2%	3%
- CCc1cccc(CC)c1NC(=O)c1ccc2c(c1)CCN2S(=O)(=O)c1ccccc1
  -15%	-19%
- COc1ccc(-c2nc(CSCC(=O)NCCc3ccccc3)c(C)o2)cc1
  -10%	-10%
- COc1ccc(S(=O)(=O)N2CCC(C(=O)NCC3CCCO3)CC2)cc1Cl (centres undefined)
  i	-5%
- CC(=O)c1ccc(NC(=O)N[C@@H](Cc2ccccc2)C(=O)O)cc1
  -4%	-12%
- COc1ccc(C2/C=C\CN(C(=O)Nc3ccccc3)CC(=O)N2Cc2ccc(F)cc2)cc1 (centres undefined)
  i	-10%

Later entries:
compound	Vaccinia mCherry	Vaccinia Venus
O=C(Cc1ccccc1)NCc1n[nH]c(=S)n1-c1ccc(Br)cc1	-7%	-13%
Cc1ccc(NC(=O)c2ccc(OC(=O)c3ccco3)cc2)cc1	-25%	-16%
O=C(c1cc(S(=O)(=O)N2CCOCC2)ccc1F)N1CCN(Cc2ccccc2)CC1	i	-7%
CC(NC(=O)CN1C(=O)COc2ccc(S(=O)(=O)N3CCCCCC3)cc21)c1ccccc1 (centres undefined)	-5%	-8%
COc1ccc(CNC(=O)C[C@H]2C(=O)N(Cc3ccccc3)C[C@@H]2Cc2ccccc2)cc1	?	?
S=C1SCN(CC2CC2)CN1CC1CC1	i	-1%
CCc1ccccc1NC(=O)c1nc2nc(C)cc(C(F)F)n2n1	-3%	3%
O=C(O)CCc1ccc(-c2cccs2)n1NC(=O)c1ccc(Cl)cc1	-24%	-4%
C=CCn1c(SCC(=O)NC(N)=O)nnc1-c1cc2c(s1)CCC(CC)C2 (centres undefined)	i	-18%
CN(C)c1ccc(-n2cccc2/C=C/[N+](=O)[O-])cc1	-18%	-22%
Cc1ccc(C(=O)C(C)OC(=O)C2CCN(c3ccc(C(F)(F)F)cn3)CC2)cc1 (centres undefined)	-14%	-13%
CCn1cc(CN2CCC(n3nccc3NC(=O)c3ccc4c(c3)OCO4)CC2)c(C)n1	i	-8%
Cc1ccc(NCc2nc3ccccc3n2CCOc2ccccc2)cc1	?	?
COc1ccc(-n2c(-c3cnccn3)n[nH]c2=S)cc1	-7%	1%
CC(C)CC(CCc1ccccc1)OS(N)(=O)=O (centres undefined)	i	-23%
COc1ccc(-c2ccc(CCC(=O)O)n2-c2ccc(O)cc2)cc1	-13%	4%
CNCc1ccccc1Sc1ccc(OC)cc1	·	-15%
Cc1ccc(SCCN2CCN(C)CCC2=O)cc1	i	-8%
CC(=O)c1c(C)[nH]c(C(=O)CN2C(=O)NC(C)(c3ccc4c(c3)OCO4)C2=O)c1C (centres undefined)	i	-7%
NC(=Nc1ccccc1)NC(=O)c1nc(Cl)c(N)nc1N	-14%	?
CCCCN(CC)CCNC(=S)Nc1ccc2nc(N3CCN(C)CC3)cc(C)c2c1	13µM*	?
Cc1nc(-c2ccc(C(=O)Nc3ccc(F)cc3)cc2)cs1	i	-20%
Cc1cc(C)n(-c2cc(Cl)cc(Cl)c2)c(=O)c1C#N	·	-4%
S=c1[nH]nc(COc2ccccc2)n1/N=C/c1ccccc1Br	-3%	2%
COC(=O)C1=C(c2cc3ccccc3s2)C[C@@H]2CC[C@H]1N2C(=O)NCc1ccc(C(F)(F)F)cc1	-16%	?
CCN1C=C(C(=O)c2ccccc2)C(=O)CC1	-24%	-13%
O=C(CC1S/C(=N/N=C2CCCCCC2)NC1=O)Nc1ccccc1C(F)(F)F (centres undefined)	-1%	-4%
CCCc1nn(C)c(C(=O)Nc2ccc(CC)cc2)c1Cl	i	-4%
COc1ccc(NS(=O)(=O)c2ccc(NC(=O)c3ccccc3Br)cc2)nn1	i	-7%
CCOc1ccc(CNC(=O)c2cc3c(=O)n(Cc4cccs4)ccc3nc2C)cc1	-22%	-19%
CSCCC(NC(=O)c1ccccc1Br)C(=O)NC(C)CCc1ccccc1 (centres undefined)	-3%	-22%
CN(C)c1ncc(S(=O)(=O)c2ccccc2)c(N)n1	i	-10%
Cn1c(=O)c2c(nc(N/N=C/c3ccncc3)n2Cc2ccccc2)n(C)c1=O	-13%	-20%
O=C(OCC1OC(Oc2ccc(O)cc2)C(O)C(O)C1O)c1ccccc1 (centres undefined)	-3%	-1%
Cc1ccc(-n2c(=O)[nH]c3sc4c(c3c2=O)CCNC4)cc1C	6%	2%
CCc1nc2ccccc2c(C(=O)Oc2ccc(C(=O)OC)cc2)c1C	i	-13%
O=C(N/C(=C/c1cccc([N+](=O)[O-])c1)C(=O)N1CCCC1)c1ccccc1	-17%	-2%
CCOC(=O)c1ccc(N2C(=O)c3n[nH]c(-c4ccco4)c3C2c2ccccc2OC)cc1 (centres undefined)	?	-30%
O=C(O)C1=NOC(CNc2ncc(C(F)(F)F)cc2Cl)C1 (centres undefined)	i	-6%
Cc1ccnc(N/C=C/C(=O)c2ccc(Br)cc2)c1	i	64%[activator]
Cc1ccc2c(c1)N(C(=O)CCC(=O)NCC(C)c1ccccc1)CC(C)O2 (centres undefined)	i	-16%
O=C(N/C(=C/c1ccc(Br)cc1)C(=O)N1CCCC1)c1ccccc1F	-22%	-13%
O=C(CCCn1c(=O)[nH]c2ccccc2c1=O)N1CCN(c2ccccn2)CC1	-4%	3%

Bioassay records: PubChem BioAssay, National Center for Advancing Translational Sciences (NCATS)
